NPYLR7 ag: activates Aedes aegypti NPYLR7 receptor; HEK293T NPYLR7/Galpha15, GCaMP6s calcium fluorescence; activation, % at 10 µM; 270,000 tested, 0.15% active; AID 1259423; in the data active = activation above about 40%;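 note: 0% = vehicle and 100% = reference agonist at the receptor; some compounds past the cut are filed as inactive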
NPYLR7 ag max-min: further read-out of NPYLR7 ag, marked with its call; activation, %; measured here: Max-Min RFU normalised activation; some inactives read as strong as hits;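 span of the calcium signal over five minutes; 0% = vehicle and 100% = native peptide agonist; compound fluorescence can raise it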
* = called active by the depositor; & = joins results of further samples.

#1 COc1cc(C(=O)N2C(=S)C(c3ccccc3)=NC23CCCCC3)cc(OC)c1OC
#2 CCOC(=O)c1cccc(NC(=O)NC2CCc3[nH]c4ccccc4c3C2)c1 (stereo not given)
#3 COc1ccc2nc(-c3ccc(NS(=O)(=O)c4cc(C)c(C)cc4C)cc3)cn2n1
#4 O=c1c(/C=N\Nc2nc3ccccc3s2)c(C(F)(F)F)[nH]n1-c1nc2ccccc2s1
#5 N#CC1C(=N)Oc2cc(O)ccc2C1c1ccc(Cl)cc1Cl (stereo not given)

Compound,1,2,3,4,5
NPYLR7 ag,3,-8,-10,0,96*
NPYLR7 ag max-min,-7,-11,-14,-3,75*

#6 CC(C)(C)OC(=O)Nc1ccc(Nc2cc(-c3ccc(F)c(F)c3)ncn2)cc1
#7 CC(C)C1c2[nH]c3ccccc3c2CCN1C(=O)CSc1ccc2nnc(-c3cccnc3)n2n1 (stereo not given)
#8 C/C=C/CCCCC(=O)C(C)C(=O)N1CCCC1CO (stereo not given)
#9 CC(C)(C)SCC(=O)N1CC(n2ccnc2)Cc2ccccc21 (stereo not given)
#10 CC(=O)Nc1cccc(C(C)NC(=O)c2ccccc2OCCN(C)C)c1 (stereo not given)

Compound,6,7,8,9,10
NPYLR7 ag,-1,24,-10,1,-5
NPYLR7 ag max-min,-1,15,-20,1,-6

#11 O=C(Nc1ccccc1)C1CC=CCC1C(=O)N1CCc2ccccc2C1 (stereo not given)
#12 FC(F)(F)c1ccc(-c2cnnc(N3CCC(c4ccncc4)CC3)n2)cc1
#13 CCC(CC)C(=O)N(C)c1c(C)nc2ccc(C(=O)N3CCCCC3)cn12
#14 Cc1ccc2[nH]cc(-c3cncnc3)c2c1
#15 COC(=O)c1ccccc1C(=O)N1CCCC(Nc2ccc(F)cc2)C1 (stereo not given)

Compound,11,12,13,14,15
NPYLR7 ag,-7,3,20,9,1
NPYLR7 ag max-min,-14,8,13,5,0

#16 Cc1cccc(N2CCN(S(=O)(=O)CCCNC(=O)c3ccco3)CC2)c1
#17 COC(=O)c1cc(Br)ccc1S(=O)(=O)Nc1cc([N+](=O)[O-])ccc1OC
#18 Cc1nnc(SCc2ccc(F)cc2)[nH]c1=O
#19 CN1CCN(C)C2(CCN(C(=O)Cc3nc(-c4ccccc4)n[nH]3)CC2)C1
#20 COCCN1CCN(CC(=O)N(C)Cc2cnn(C)c2)CC1C (stereo not given)

Compound,16,17,18,19,20
NPYLR7 ag,1,1,-3,4,7
NPYLR7 ag max-min,0,1,-3,1,4

#21 Cc1ccc(NC(=O)Cn2c3ccccc3c(=O)c3ccccc32)cc1Cl
#22 COc1ccc2[nH]c3c(c2c1)CCN(C(=O)c1cccc(OC(C)=O)c1C)C3c1ccccc1OC (stereo not given)
#23 COc1cccc(C(=O)NC(C#N)c2cccc(Br)c2)c1 (stereo not given)
#24 COCCn1c(=NC(=O)c2cc(C)no2)sc2cc(C)c(C)cc21
#25 CC(=O)N1CCSC1c1ccc(C(C)(C)C)cc1 (stereo not given)

Compound,21,22,23,24,25
NPYLR7 ag,0,-13,-18,10,-2
NPYLR7 ag max-min,-7,-13,-23,12,10

By substructure: the compounds so far with a cyano group
#5 N#CC1C(=N)Oc2cc(O)ccc2C1c1ccc(Cl)cc1Cl (stereo not given)
#23 COc1cccc(C(=O)NC(C#N)c2cccc(Br)c2)c1 (stereo not given)

Compound,5,23
NPYLR7 ag,96*,-18
NPYLR7 ag max-min,75*,-23

More results
#26 O=C(C=Cc1ccco1)OCc1nc(-c2cccs2)no1
#27 COc1ccc2[nH]c3c(c2c1)CCN(C(=O)c1cccnc1Oc1ccc(Cl)cc1)C3c1ccc(-c2ccccc2C(F)(F)F)o1 (stereo not given)
#28 Cn1cc(S(=O)(=O)N2CCN(C(=O)C(Sc3ccccc3)c3ccccc3)CC2)cc1C(N)=O (stereo not given)
#29 CC(=O)Nc1ccc(S(=O)(=O)N2CCc3nc(C)nc(N4CCC(C)CC4)c3C2)cc1
#30 CN(C)S(=O)(=O)c1ccc(=O)n(Cc2ccn(-c3cccc(F)c3)n2)c1

Compound,26,27,28,29,30
NPYLR7 ag,11,1,8,12,9
NPYLR7 ag max-min,15,-1,5,15,6

#31 CS(=O)(=O)c1ncc(CN2CCCC(c3ccccc3)C2)n1Cc1ccccc1F (stereo not given)
#32 Cc1ccc(-c2nc(C=Nc3ccccc3Cl)c(O)o2)cc1
#33 CCCN(C)c1nc(-c2ccccc2)nc2c1CN(C(=O)Nc1ccc(C(C)C)cc1)CC2
#34 COCCCNC(=O)C(NC(=O)c1ccccc1F)C1CCN(C(=O)c2cccc(OC)c2)CC1 (stereo not given)
#35 O=c1ccc(-c2ccccc2)nn1Cc1cccc(Cl)c1

Compound,31,32,33,34,35
NPYLR7 ag,6,-2,3,-3,14
NPYLR7 ag max-min,7,-9,3,-2,8

#36 Cn1c(=O)c2c(nc(CN3CCOCC3)n2Cc2c(F)cccc2Cl)n(C)c1=O
#37 CC1=C(C#N)C(C(F)(F)F)(C(F)(F)F)N=C(C2CCCCC2)N1
#38 CCCCN(C)C(=O)c1sc(=O)n(Cc2ccc(C(=O)OC)o2)c1C
#39 O=C1c2cccc(Cl)c2C(=O)c2cccc(Cl)c21
#40 Cc1ccccc1OCC(O)CN1CCOc2ccccc21 (stereo not given)

Compound,36,37,38,39,40
NPYLR7 ag,-1,9,-2,3,20
NPYLR7 ag max-min,-4,2,-4,6,6

#41 Cc1cnc(C(=O)N2CCCC(C(=O)c3ccc(Oc4ccccc4)cc3)C2)cn1 (stereo not given)
#42 Cn1c(=O)c2c(nc(SCSc3nc4c(c(=O)n(C)c(=O)n4C)n3C)n2C)n(C)c1=O
#43 COc1cc(NC(=O)Nc2cccc(-c3ccc(N4CCCC4)nn3)c2)cc(OC)c1
#44 CC(C)Nc1cccc(CNS(=O)(=O)CCOC(C)C)c1
#45 CC(C)(C)CC(C)(C)Nc1c(-c2ccccc2F)nc2ccccn12

Compound,41,42,43,44,45
NPYLR7 ag,18,-2,12,6,5
NPYLR7 ag max-min,9,-4,8,4,7

#46 O=c1c2ccccc2nnn1CC(O)COc1cccc2ccccc12 (stereo not given)
#47 CCOC(=O)c1ccc(NC(=O)NC(C(=O)Nc2nnc(-c3ccc(C)cc3)s2)C(C)C)cc1 (stereo not given)
#48 Cc1ccc(CN(Cc2ccc3c(c2)OCO3)C(=O)CN(CC2CCCO2)C(=O)Nc2ccc(F)cc2F)o1 (stereo not given)
#49 COc1cc2c(cc1C(=O)N1Cc3cnc(C(C)(C)C)nc3C1)CCC2
#50 CC(NC(=O)c1cn(Cc2ccc(Cl)cc2)nn1)c1nc(-c2ccccc2)no1 (stereo not given)

Compound,46,47,48,49,50
NPYLR7 ag,8,21,12,11,9
NPYLR7 ag max-min,6,14,16,2,4

#51 Cc1nc2scc(C)n2c(=O)c1NC(=O)c1ccc(S(=O)(=O)N2CCOCC2)cc1
#52 Cn1nc(C(=O)NCCc2nnc3n2CCNCC3)c2ccccc21
#53 COc1ccc(-c2cc3c(=O)n(CC(=O)Nc4ccccc4)ccn3n2)cc1
#54 COc1ccccc1C(=O)NS(=O)(=O)N1CCOc2ccccc21
#55 COCCn1c(C)cc(O)c(C(c2ccc(SC)cc2)N2CCN(CCO)CC2)c1=O (stereo not given)

Compound,51,52,53,54,55
NPYLR7 ag,11,6,1,7&5,10
NPYLR7 ag max-min,2,3,-6,2&5,5

#56 C#CCSc1nnc(Cn2c(=O)sc3ccccc32)n1C
#57 Cc1cc(C)c(NC(=O)NCCc2ccccn2)c(Cl)c1
#58 CC1=NC(C(F)(F)F)(C(F)(F)F)C(C#N)=C(C)N1
#59 Cc1ccc2sc(N(Cc3ccccn3)C(=O)Cc3ccc(S(C)(=O)=O)cc3)nc2c1C
#60 COc1ccc(OCCC(=O)NCC23CC4CC(CC(C4)C2)C3)cc1

Compound,56,57,58,59,60
NPYLR7 ag,7,5,2,8,5
NPYLR7 ag max-min,6,1,-1,7,7

#61 CCCc1[nH]n(-c2ccc(Cl)cc2)c(=O)c1C1=C([n+]2cccc(C)c2)C(=O)N(CC(C)C)C1=O
#62 O=C(N[C@@H]1CCCCC1NC(=O)[C@H]1CCCN1S(=O)(=O)c1ccc(F)cc1)c1ccc(F)cc1 (stereo not given in full)
#63 CCCS(=O)(=O)NC1CCN(Cn2cc(C)n(-c3ccc(C)cc3)c2=O)CC1
#64 COc1ccc(CCOC(=O)[C@@H]2CCCN2C(=O)c2c(Cl)ccc(C)c2F)cc1OC
#65 Clc1cccc(C=NN2CCN(Cc3ccccc3Cl)CC2)c1

Compound,61,62,63,64,65
NPYLR7 ag,9,3,-1,-7,-6
NPYLR7 ag max-min,12,16,0,-11,-12

Single records, as listed above. Screens in order: NPYLR7 ag | NPYLR7 ag max-min
CC1=NC(C(F)(F)F)(C(F)(F)F)C(C#N)=C(C)N1 as listed: 2 | -1
O=c1ccc(-c2ccccc2)nn1Cc1cccc(Cl)c1 as listed: 14 | 8

(more compounds)
#66 CC(C)C[C@@H](N)C(=O)NCc1ccccc1-n1ccnc1
#67 CNc1nc2cnc(Nc3cccc(F)c3)cc2n1-c1cc(OC)c(OC)c(OC)c1
#68 Cc1oc2cc(OC(C)C)ccc2c(=O)c1Oc1ccccc1
#69 S=C(N=c1sccn1Cc1ccccc1)NC1CC1
#70 CC(C)(C)n1ccc(C(=O)N2C[C@@H](C(=O)O)C[C@@H](C(=O)NC3CC3)C2)c1

Compound,66,67,68,69,70
NPYLR7 ag,1,8,8,-1,2
NPYLR7 ag max-min,9,6,7,4,1

#71 Cc1cccnc1CNC(=O)CC(c1ccccc1)c1ccc2c(c1)OCO2 (stereo not given)
#72 O=C(C1CC(c2cccc(F)c2)=NO1)N1CCOC2CCCCC21 (stereo not given)
#73 O=C(O)CN1C(=O)/C(=C\c2ccc(I)cc2)SC1=S
#74 Cc1ccc(C)c2c1NC(=O)C2CC(=O)N(CCO)Cc1nccs1 (stereo not given)
#75 Cc1cc(NC(=O)CN2CCOCC2)n(-c2ccccc2)n1

Compound,71,72,73,74,75
NPYLR7 ag,4,2,-7,2,0
NPYLR7 ag max-min,4,41,-14,3,11

#76 COC(=O)c1c(NCCN2CCCc3ccccc32)c2cccc(Cl)c2[nH]c1=O
#77 COCCNc1nnc(SCC(=O)Nc2sc3c(c2C(=O)OC)CCC3)s1
#78 C/C(=N/NC(=O)Cn1cnc([N+](=O)[O-])n1)c1ccc(Br)cc1
#79 CCOCCCN(CC(=O)N1CCc2sccc2C1c1ccc(Cl)cc1)C(=O)COC (stereo not given)
#80 CN(C)c1ccc(C2CC(c3ccccc3)=Nc3nnnn32)cc1 (stereo not given)

Compound,76,77,78,79,80
NPYLR7 ag,-3,-5,-10,-9,20
NPYLR7 ag max-min,-4,-6,-17,0,10

#81 CCOC(=O)N1CCN(C2CCCN(C(=O)c3cc(=O)n(C)c(=O)n3C)C2)CC1 (stereo not given)
#82 COc1ccc(-c2cc(C(=O)NC(C)(C)C)n3nc(C(C)(C)C)cc3n2)cc1
#83 O=C1NC2(CCCc3sccc32)C(=O)N1Cc1coc(-c2cccs2)n1 (stereo not given)
#84 CCOC(=O)c1c(C)c(C(=O)CN(C(=O)c2ccc([N+](=O)[O-])cc2)C2CC2)c(C)n1CC
#85 CC1C(=O)N(c2ccc(Br)cc2)CCN1C(=O)Cc1ccccc1 (stereo not given)

Compound,81,82,83,84,85
NPYLR7 ag,2,-5,2,-8,-2
NPYLR7 ag max-min,1,-1,4,-2,-1

#86 CSc1nsc(SCc2ccc(C(=O)N3C4CCC3CC(Oc3ccccc3C(C)C)C4)cc2)n1 (stereo not given)
#87 CCCN(Cc1ccc(C(O)(c2ccc(OC)cc2)c2ccc(OC)cc2)o1)Cc1cccn1C
#88 NC(=O)c1cnc2n1CCN(C(=O)CCc1nc3ccccc3s1)C2
#89 O=c1[nH]c2ccc(-c3csc(-c4ccc(F)cc4)n3)cc2o1
#90 CC(C)S(=O)(=O)c1ccccc1C(=O)Nc1nc2c(s1)C(=O)CCC2

Compound,86,87,88,89,90
NPYLR7 ag,-5,-9,-3,1,0
NPYLR7 ag max-min,-7,-2,-7,1,10

#91 Cc1sc2ncn(CCS(=O)(=O)NCc3ccc4c(c3)OCO4)c(=O)c2c1C
#92 COCCN(CC(=O)N(Cc1cccn1Cc1ccc(Br)cc1)C1CCCCC1)S(=O)(=O)c1ccc(Br)cc1
#93 COc1ccc(C2(C)NC(=O)N(CC(=O)Nc3nc(-c4ccc(C)cc4C)cs3)C2=O)cc1 (stereo not given)
#94 Cc1csc(=O)n1CCC(=O)OCC(=O)NC1CCS(=O)(=O)C1 (stereo not given)
#95 COc1ccc(CC(=O)Nc2cccc(C3SCC(=O)N3c3ccc(C)c(F)c3)c2)cc1 (stereo not given)

Compound,91,92,93,94,95
NPYLR7 ag,6,-3,4,0,-1
NPYLR7 ag max-min,4,6,2,7,2

#96 CCOc1ccccc1NC(=O)CCc1c(C)nn(-c2nc(C)cc(=O)[nH]2)c1C
#97 O=C(CCCc1cc(Cl)sc1Cl)N1CCC(O)CC1
#98 O=C1CCCCN1CCCC(=O)N1CCOC(CC2CCCCC2)C1 (stereo not given)
#99 CC(C)(C)c1cc2nc(-c3ccccc3Cl)cc(C(=O)NCc3ccc4c(c3)OCO4)n2n1
#100 CCOC(=O)c1ccc(NC(=O)c2cc3c(ccc4ccccc43)oc2=O)cc1
#101 COc1c(S(C)(=O)=O)ccc(C(=O)Oc2cc(=O)n(-c3ccccc3)c(-c3ccccc3)n2)c1C
#102 Cc1ccc(C(=O)NCC2CCCN(C(=O)C3CC3)C2)cn1 (stereo not given)
#103 CC(NC(=O)c1cc(-c2ccc(F)cc2)nc2cc(C(C)(C)C)nn12)c1ccccc1 (stereo not given)

Compound,96,97,98,99,100,101,102,103
NPYLR7 ag,6,-4,19,-2,-5,-6,-2,18&-4
NPYLR7 ag max-min,-1,-3,3,6,-8,-7,0,18&5

From PubChem BioAssay

This is a subset (hit frequency here may not be typical).
